Beta cell apopt = beta cell apoptosis inhibition; 0.8% of 300,000 active; protection from apoptosis, % (no concentration beside the values); INS-1E cytokine-induced death, ATP luminescence, 48 h; percent of positive-control rescue, neutral wells zero;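 active means all replicates at 75% or more, or half of them and the mean; inconclusive means half reach 75% but not the mean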;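 further: 0% = cytokine-treated negative control wells and 100% = positive control rescue; higher means more ATP so stronger rescue from cytokine killing; wells of about 40 µL received 100 nL stock; the first replicate is given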
LANA-H2A inh = blocks KSHV LANA binding to histone H2A/H2B; Q9QR71; cell-free LANA-H2A/H2B peptide, fluorescence polarization; 0.6% of 320,000 active; AID 2629; inhibition, % (concentration not given with the values); in the data active means inhibition mostly above about 10%, no sharp cut-off; inactive means mostly below about 6.7%;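 further: stock transfer was 7.5 nL into about 10 µL; 0% = median of vehicle wells and 100% = median of positive control wells; one replicate is shown; the record names a cut of 25% in any replicate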
Beta2AR agonist = activates human beta-2 adrenergic receptor causing internalization | P07550 | AID 504454 | response, % (no concentration beside the values) | 0.43% of 340,000 active | Am2.2-beta2AR cells, FAP receptor internalization, flow cytometry; reference of the scale not given here;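 active means response above a set limit, near 3 SD of response in nonfluorescent compounds, cut at about 42% in these data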;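 further: stock transfer was 100 nL into about 11 µL; a reference agonist was the positive control; negative values mostly stem from fluorescent compounds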
Target sequence (P07550 whole entry, looked up): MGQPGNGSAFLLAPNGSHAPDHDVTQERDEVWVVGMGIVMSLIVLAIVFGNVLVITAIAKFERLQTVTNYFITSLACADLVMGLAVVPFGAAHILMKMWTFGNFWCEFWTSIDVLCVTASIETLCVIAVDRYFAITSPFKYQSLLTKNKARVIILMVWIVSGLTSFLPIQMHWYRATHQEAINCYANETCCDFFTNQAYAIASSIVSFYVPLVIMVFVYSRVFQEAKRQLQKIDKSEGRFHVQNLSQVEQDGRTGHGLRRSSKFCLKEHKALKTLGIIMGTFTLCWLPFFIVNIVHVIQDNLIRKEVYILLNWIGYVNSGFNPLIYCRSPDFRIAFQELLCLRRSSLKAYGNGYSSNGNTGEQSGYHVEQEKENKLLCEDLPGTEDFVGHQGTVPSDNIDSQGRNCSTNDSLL
RanGTP-Impb inh = inhibitors of RanGTP-importin-beta interaction, primary screen, biochemical, FRET, CFP-Ran, YFP-importin-beta, homogeneous | cell-free CFP-Ran/YFP-importin-beta FRET ratio | inhibition, % (concentration not given with the values) | 1.1% of 300,000 active;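 active means most replicates above 15%; inconclusive means exactly half above 15%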;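 further: 0% = DMSO wells and 100% = Ran loaded with GDP instead of GTP; wells of about 40 µL received 100 nL stock; the first replicate is given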
Calb FLC = C. albicans growth modulation with fluconazole. C. albicans CaCi-2 (fluconazole-resistant clinical isolate) + fluconazole, Alamar Blue growth, 48 h. growth inhibition, % (test concentration not listed). 0.57% of 300,000 active;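 active means most replicates above 75%; inconclusive means exactly half above 75%; inactive means most below 75%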;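 further: all wells also contain fluconazole at 8 µg/ml as a sub-toxic cotreatment; 0% = median of DMSO wells and 100% = median of geldanamycin control wells; wells of about 8 µL received 7.5 nL stock; the first replicate is given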
UCH37 DUB inh = inhibitors of human deubiquitinating enzyme UCH37; 0.33% of 330,000 active; purified proteasome/UCH37, Ub-AMC cleavage fluorescence; inhibition, % (concentration not given with the values); Q9Y5K5; AID 588478;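 active means mean of two replicates above 20%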;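 further: 0% = compound-free wells with enzyme and 100% = wells lacking proteasome; stock transfer was 100 nL into about 20 µL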
Target sequence (Q9Y5K5 whole entry, looked up): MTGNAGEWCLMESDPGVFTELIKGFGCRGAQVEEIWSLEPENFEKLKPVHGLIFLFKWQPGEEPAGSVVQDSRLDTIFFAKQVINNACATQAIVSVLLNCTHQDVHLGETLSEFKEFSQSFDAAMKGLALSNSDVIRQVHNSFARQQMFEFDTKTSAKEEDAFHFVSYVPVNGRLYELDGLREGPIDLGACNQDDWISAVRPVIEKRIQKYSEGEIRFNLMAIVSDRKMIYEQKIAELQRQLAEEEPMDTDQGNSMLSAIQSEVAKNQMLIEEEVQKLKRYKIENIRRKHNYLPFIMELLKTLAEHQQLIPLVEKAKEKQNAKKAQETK
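Material: human UCH37 enzyme supplied as purified proteasome complex / Amount: 0.15 nM proteasome as dispensed / Buffer or medium: pH 7.4 Tris-HCl (50 mM) with ovalbumin, ATP-MgCl2, DTT / Times: preincubation 30 min, reaction 25 min, room temperature / Technique: AMC fluorescence from Ub-AMC cleavage, excitation 355 nm, emission 460 nm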
T cruzi inh = blocks replication of Trypanosoma cruzi; AID 1885; inhibition, % (test concentration not listed); 1.4% of 300,000 active; T. cruzi beta-gal in NIH3T3, luminescence, 90 h;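 active means mean inhibition across valid replicates above about 55%, limit read from the data; inconclusive means mean below that limit but half or more replicates reach it; inactive means mean below it, under half of replicates reach it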;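 further: signal also drops with host cell toxicity which is not excluded here; 0% = plate median of DMSO wells and 100% = zero luminescence signal; higher percent means less beta-gal luminescence so fewer parasites; stock transfer was 50 nL into about 50 µL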
A1 inh = inhibitors of the anti-apoptotic protein A1, read as caspase activation; caspase activation, % (test concentration not listed); MEF A1-2A-BIM cells, Caspase-Glo 3/7 luminescence, 3 h; percent of clofoctol response, vehicle zero; 0.066% of 330,000 active; AID 2462;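 active means over half of replicate activation scores above 10%, or exactly half above 10 with the replicate mean above 10; inconclusive means replicate mean below 10 yet half the replicates above 10; inactive means over half of replicates below 10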;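 further: wells of about 30 µL received 50 nL stock; many hits fall short of the cut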
* = called active by the depositor; ? = inconclusive; nt = not tested or not shown.

SMILES	Beta cell apopt	LANA-H2A inh	Beta2AR agonist	RanGTP-Impb inh	Calb FLC	UCH37 DUB inh	T cruzi inh	A1 inh
Cc1ccc(C)c(N(CC(=O)NC(C)C)C(=O)CCC(=O)Nc2ccccn2)c1	-4	0.7	-5	-4.3	10	0.6	-7	0.1
CCOc1ccccc1-c1nc(-c2ccc(NC(=O)Cc3ccccc3OC)cc2)no1	5	2.8	6	1.9	11	1.3	56*	-0.6
COc1cc(NC(=O)Cn2nc(-c3ccc(F)cc3)ccc2=O)ccc1-n1cnnn1	0	1.2	5	8.7	1	4.6	-7	-0.9
CC(C)C[C@H](NC(=O)NCCC1=CCCCC1)C(=O)O	-6	-8.3	3	6.1	-1	4.7	0	0.0
O=C(CCNC(=O)N1CC(=O)Nc2ccccc21)Nc1cccc(Cl)c1	-10	15*	-10	1.8	9	-1.0	-7	-0.2
COc1ccc(C(=O)Nc2ccc(Cl)cc2C(=O)N2CCCC(C)C2)cc1 (stereo unspecified)	-2	-0.9	-4	1.3	-16	-0.4	-3	0.1
CC(=O)Nc1ccccc1/C=C/c1ccc2c(C)cc(C)c(O)c2n1	37	-2.0	0	-3.6	109*	3.7	-12	0.9
Cc1cccc(NCN2C(=O)C3C4C=CC(C4)C3C2=O)c1 (stereo unspecified)	-5	3.5	9	-1.6	-29	-0.2	-10	0.0
O=C(NCCc1ccc(F)cc1)NC12CC3CC(CC(C3)C1)C2	5	-1.1	5	7.1	3	3.8	10	0.1
COc1ccc(CNC(=O)CCNS(=O)(=O)c2ccc(C)cc2)cc1	0	-7.6	3	-9.3	-5	2.0	-4	1.3
CC(C)c1ccc(C(=O)NCCCN2CCOCC2)cc1	-1	-0.6	2	0.6	5	1.4	5	-0.2
O=C(COC(=O)CNC(=O)c1ccc(Br)cc1)NCCC1=CCCCC1	-4	0.7	1	?	-8	2.4	7	0.0
CC(=O)C(Cc1ccccc1)NC(=O)CN(C)Cc1ccccc1Cl (stereo unspecified)	4	-9.9	7	-0.9	5	3.9	-6	-0.2
CCOc1ccccc1OCCCC(=O)N(CC)CC(=O)Nc1c(F)cccc1F	-4	-0.2	-3	nt	3	3.4	-2	-0.4
CCCCCCCC(=O)NC1=NC(=O)C(C)(C)S1	-2	-1.9	-1	0.7	-4	-0.7	-28	0.5
CC1CC(N(C(=O)c2ccco2)c2ccccc2)c2ccccc2N1C(=O)c1ccco1 (stereo unspecified)	0	-4.4	2	3.7	-10	3.2	12	-0.8
COCCCNC(=O)CCc1nc2cccnc2n1Cc1ccc(OC)cc1	-6	10	-16	0.5	26	2.3	2	-0.5
O=S(=O)(c1cccc(Cl)c1)N1CCSc2ccccc21	1	-7.0	-6	nt	nt	1.5	nt	-0.7
COc1ccc(-n2nc(C(=O)NCC(=O)Nc3cccc(Cl)c3)c3ccccc3c2=O)cc1	nt	-4.4	6	-0.9	0	-46	4	0.7
CCCn1c(CN2CCN(C(=O)OCC)CC2)nc2cc(NC(C)=O)ccc21	-5	-2.1	-48	3.2	-5	-4.0	22	0.8
CN(C(=O)CSc1ccccc1C(=O)O)C1CCCCC1	-1	-1.5	-3	-4.2	1	5.1	5	0.4
CCCCN(Cc1ccc(C(=O)N[C@H](C(=O)O)C(C)C)cc1)C(=O)C(c1ccccc1)c1ccccc1	-1	2.2	0	9.4	3	-4.4	-39	0.4
O=C(Nc1nnc(-c2cccs2)o1)c1cc(-c2ccccc2)nc2ccccc12	9	-1.1	6	0.6	60	nt	20	-1.8
Cc1ccc(NS(=O)(=O)N2CCOCC2)cc1	-2	8.5	12	1.6	-39	0.3	-8	1.0
COc1cc(NC(=O)COC(=O)c2n[nH]c3ccccc23)c(C)cc1[N+](=O)[O-]	4	-5.8	6	2.8	-7	9.2	0	-0.1
Cc1ccc(N2C(N)=C(C#N)C(c3cc(CN4CCOCC4)cs3)C3=C2CC(C)(C)CC3=O)cc1 (stereo unspecified)	-9	-3.2	-6	6.2	-17	-42	22	0.2
Cc1noc(NS(=O)(=O)c2ccc(NC(=O)C(F)(F)F)cc2)c1C	-3	12	-1	5.8	-2	0.8	-12	0.6
Cc1[nH]nc(N=CC2=C(O)CC(c3ccco3)CC2=O)c1-c1ccc(Cl)cc1 (stereo unspecified)	0	-2.2	-9	11	12	-14	32	0.3
CC(C)c1ccc(N(CC(=O)NC2CCCCC2)C(=O)CNC(=O)c2ccco2)cc1	-4	39*	-7	0.9	2	3.5	14	0.4
Cc1ccc(C(=O)NCCNS(=O)(=O)c2ccccc2)cn1	-8	-1.4	8	0.6	3	2.3	-1	0.5
Cc1ccc(NC(=O)COc2cccc(-n3cnnn3)c2)cc1S(=O)(=O)N1CCOCC1	1	-7.1	16	nt	nt	-0.3	nt	-0.4
CCC(=O)N1CCc2cc(Br)cc(S(=O)(=O)CCC(=O)NCC3CCCO3)c21 (stereo unspecified)	-5	-0.2	-4	0.5	2	2.8	0	0.4
CC(=O)C1=C(O)C(=O)N(CCCn2ccnc2)C1c1ccc(Cl)cc1 (stereo unspecified)	-17	-3.2	-2	-4.8	-4	-0.8	-7	-0.4
Cc1ccccc1NS(=O)(=O)c1ccc(C(=O)NNC(=O)c2ccccc2O)cc1	nt	-2.0	4	0.4	-15	2.7	-14	-2.0
COC(=O)c1c(-c2cccs2)csc1NC(=O)CN1CCOCC1	-3	2.5	-1	-2.1	0	2.0	6	0.2
Cc1ccc(N2C(N)=C(C#N)C(c3ccsc3)C3=C2CC(C)(C)CC3=O)cc1 (stereo unspecified)	-9	-0.1	-3	-0.7	11	-2.8	15	-0.3
CS(=O)(=O)N1CCN=C1SCc1ccccc1	nt	-2.0	-5	1.2	-7	5.0	-6	0.3
Cc1ccccc1C(=O)NC1CCN(CC(=O)NC2CCCCC2)CC1	-1	-2.9	0	-0.6	-2	1.5	2	0.6
Cc1ccccc1NC(=O)Cc1nnc(NC(=O)Nc2ccccc2F)s1	1	-6.0	15	-2.9	3	2.0	-12	-0.1
N#CC1(NC(=O)Cn2cc(C(F)(F)F)cc(Cl)c2=O)CCCCC1	0	-4.2	-7	0.3	-3	0.9	-6	0.4

Quoted at random: 2 entries already listed, in no set order.
SMILES	Beta cell apopt	LANA-H2A inh	Beta2AR agonist	RanGTP-Impb inh	Calb FLC	UCH37 DUB inh	T cruzi inh	A1 inh
CCOc1ccccc1-c1nc(-c2ccc(NC(=O)Cc3ccccc3OC)cc2)no1	5	2.8	6	1.9	11	1.3	56*	-0.6
O=C(Nc1nnc(-c2cccs2)o1)c1cc(-c2ccccc2)nc2ccccc12	9	-1.1	6	0.6	60	nt	20	-1.8

Following part.
SMILES	Beta cell apopt	LANA-H2A inh	Beta2AR agonist	RanGTP-Impb inh	Calb FLC	UCH37 DUB inh	T cruzi inh	A1 inh
COCc1[nH]c(=S)[nH]c(=O)c1C	1	-3.8	-6	5.0	0	5.3	-5	0.1
COc1ccc(N2CCN(S(=O)(=O)c3ccc4c(c3)N(C(C)=O)CCO4)CC2)cc1	4	-0.3	-6	-2.7	-31	0.8	11	0.0
CCNC(=O)Oc1ccc[nH]c1=O	-11	-0.9	-6	-3.5	-10	1.7	4	0.6
COc1cc(C(=O)NCc2ccc3[nH]c(C)cc3c2)cc(OC)c1OC	nt	-0.3	-2	-2.7	14	4.5	-6	0.3
CC(C)(C)C(=O)Nc1cc(NC(=O)C(C)(C)C)cc(C(=O)Nc2c[nH]c(=O)[nH]c2=O)c1	nt	-9.6	5	?	-2	-0.4	8	0.5
CCc1cccc(NC(=O)C2CCCN(S(=O)(=O)c3cccnc3)C2)c1 (stereo unspecified)	-7	0.8	1	-0.3	8	1.9	4	-0.2
O=C(O)CCC(=O)Nc1sc2c(c1C(=O)NCc1ccccc1)CCCC2	-1	0.9	8	0.2	2	2.0	5	-0.6
COC(=O)N/N=C\c1ccccc1OC/C=C/c1ccccc1	5	-3.2	-9	-4.4	34	nt	12	1.1
O=C(CC(=O)Nc1ccc(Cl)cc1)N/N=C\c1cccc(F)c1	-1	7.9	6	-0.8	15	nt	-8	1.1
COCCNc1ccc(N2C(=O)C3CCCCC3C2=O)cc1[N+](=O)[O-] (stereo unspecified)	7	-4.9	-7	3.5	-7	6.1	4	-0.2

Sorted by number of heavy atoms (smallest number first): some entries from above
SMILES	Beta cell apopt	LANA-H2A inh	Beta2AR agonist	RanGTP-Impb inh	Calb FLC	UCH37 DUB inh	T cruzi inh	A1 inh
COCc1[nH]c(=S)[nH]c(=O)c1C	1	-3.8	-6	5.0	0	5.3	-5	0.1
CCNC(=O)Oc1ccc[nH]c1=O	-11	-0.9	-6	-3.5	-10	1.7	4	0.6
CS(=O)(=O)N1CCN=C1SCc1ccccc1	nt	-2.0	-5	1.2	-7	5.0	-6	0.3
COC(=O)N/N=C\c1ccccc1OC/C=C/c1ccccc1	5	-3.2	-9	-4.4	34	nt	12	1.1
COC(=O)c1c(-c2cccs2)csc1NC(=O)CN1CCOCC1	-3	2.5	-1	-2.1	0	2.0	6	0.2
COCCNc1ccc(N2C(=O)C3CCCCC3C2=O)cc1[N+](=O)[O-] (stereo unspecified)	7	-4.9	-7	3.5	-7	6.1	4	-0.2
COc1cc(C(=O)NCc2ccc3[nH]c(C)cc3c2)cc(OC)c1OC	nt	-0.3	-2	-2.7	14	4.5	-6	0.3
O=C(O)CCC(=O)Nc1sc2c(c1C(=O)NCc1ccccc1)CCCC2	-1	0.9	8	0.2	2	2.0	5	-0.6
Cc1ccc(N2C(N)=C(C#N)C(c3ccsc3)C3=C2CC(C)(C)CC3=O)cc1 (stereo unspecified)	-9	-0.1	-3	-0.7	11	-2.8	15	-0.3
Cc1ccccc1NS(=O)(=O)c1ccc(C(=O)NNC(=O)c2ccccc2O)cc1	nt	-2.0	4	0.4	-15	2.7	-14	-2.0
CC(C)(C)C(=O)Nc1cc(NC(=O)C(C)(C)C)cc(C(=O)Nc2c[nH]c(=O)[nH]c2=O)c1	nt	-9.6	5	?	-2	-0.4	8	0.5

Source: PubChem BioAssay
